High-throughput results as filed in PubChem.
VDR inh = inhibitors of human vitamin D receptor. P11473. VDR-SRC2-3 peptide fluorescence polarization, 2 h. Potency, µM, without a hit: max response, negative = inhibition, actives largely listed as inhibitors. hit rate 0.93% among 400,000. AID 504847; active = well fitted inhibition curve with a large enough effect; inconclusive = small, poorly fitted or top-dose-only effect, or another doubt; inactive = no such curve, though single readings can be large or run the other way; also: series mostly up to about 120 µM
Target sequence (P11473 whole entry, looked up): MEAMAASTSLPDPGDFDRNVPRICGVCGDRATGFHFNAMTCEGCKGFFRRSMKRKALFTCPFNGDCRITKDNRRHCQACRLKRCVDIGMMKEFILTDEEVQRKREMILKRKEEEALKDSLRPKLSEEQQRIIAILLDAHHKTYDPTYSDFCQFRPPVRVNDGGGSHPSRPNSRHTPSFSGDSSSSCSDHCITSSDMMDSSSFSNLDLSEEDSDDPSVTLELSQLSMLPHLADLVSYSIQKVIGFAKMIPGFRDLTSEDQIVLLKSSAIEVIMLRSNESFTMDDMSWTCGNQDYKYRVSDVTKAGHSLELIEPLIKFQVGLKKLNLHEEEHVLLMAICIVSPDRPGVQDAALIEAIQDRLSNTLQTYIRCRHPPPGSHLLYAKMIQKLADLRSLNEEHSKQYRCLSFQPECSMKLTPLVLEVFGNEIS
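Fluorescence polarization assay of small-molecule disruption of VDR binding to coregulator peptide SRC2-3. Compounds and controls pin-transferred, then read after 2 h incubation at ambient room temperature.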
Active calls of the source: *; ? = inconclusive; & = joins results of further samples; [ ] = remark or other dose. % is scaled to controls: 0 for no effect and ±100 for the full control effect; potency is read from the fitted curve at half-maximal effect. Some of the compounds tested; the hit share may differ from the screen's.

SMILES | VDR inh
CCCCOC(=O)c1ccc(Nc2nc3ccccc3c3nnc(C)n23)cc1 | -1%
CCOC(=O)C1=C(C)NC(=O)NC1c1ccccc1OCc1c(F)cccc1Cl (configuration not stated) | -17%
COc1ccc(CNC(=O)c2onc(C)c2Cl)cc1 | 8%
Cc1ccc(C(=O)COC(=O)c2ccc3c(c2)C(=O)N(c2cccc4ncccc24)C3=O)cc1 | 19%
Cc1ccc(-c2onc3ccc(Br)cc23)cc1 | -12%
Cc1ccc(SCc2nc(-c3cccnc3)no2)cc1 | -9%
COc1ccc(S(=O)(=O)N2CCC(C(=O)Nc3ccc(S(=O)(=O)N4CCCC4)cc3)CC2)cc1OC | 4%
CNC(=S)N(CCO)Cc1cc2cc3c(cc2[nH]c1=O)OCCO3 | -5%
CC(=O)c1ccc2c3c(cccc13)C(=O)N(CCc1ccccc1)C2=O | -2%
O=C(CSc1nnc2ncccn12)Nc1cccc2ccccc12 | -2%
CCCCc1nc2cc(C(=O)NCc3nccn3CC)ccc2o1 | -22%
CCn1c(SCC(=O)NC(=O)Nc2ccc3c(c2)OCCO3)nnc1-c1cccs1 | 3%
Cc1ccc(-n2c(SCC(=O)N3Cc4ccccc4CC3C(=O)O)nnc2-c2cccnc2)c(C)c1 (configuration not stated) | -15%
O=C(NCc1ccc(Cl)c(Cl)c1)c1ccc2c(c1)OCO2 | 1%
CC(=O)Nc1ccc(S(=O)(=O)NCCC(=O)OCc2nnc(-c3ccccc3)o2)cc1 | 9%
O=C(CCN1C(=O)c2ccccc2C1=O)NCc1ccco1 | -12%
CCC(C)C(NC(=O)C(C)NC(=O)CNC(=O)OC(C)(C)C)C(N)=O (configuration not stated) | 39%[activator]
Cc1ccc(C(=O)NNC(=O)c2ccccc2-n2cccc2)cc1 | -1%
CSc1ccc2c(c1)[C@H](N1CCN(C)CC1)Cc1ccccc1S2 | ?
O=C(c1ccccc1)c1ccc(COC(=O)c2cnccn2)cc1 | -11%
Cc1ccc(NC(=O)c2cc(N3C(=O)C4CC=CCC4C3=O)ccc2N2CCOCC2)cc1Cl (configuration not stated) | 12%
COc1ccc2c(c1)[nH]c1c(=O)n(CCCN3CCOCC3)cnc12 | 8%
O=C(N[C@@H](Cc1c[nH]c2ccccc12)C(=O)O)c1ccc(Cl)cc1 | 10%
COc1cccc(CNC(=O)C(C)n2c(=O)cc(-c3ccccc3)c3c(C)nn(C)c32)c1 (configuration not stated) | 1%
CN(CC(=O)Nc1ccc(N2CCOCC2)cc1)CC(=O)Nc1ccccc1C#N | 9%
COc1cc(/C(C)=N/N2CCN(c3ccccc3OC)CC2)ccc1O | -7%
CCOC(=O)c1sc(NC(=O)c2ccoc2C)c(C(N)=O)c1C | -23%
CCOc1ccc(OCC)c(NC(=O)c2cc(-c3cccs3)nc3ccccc23)c1 | -3%
CCOC(=O)C(=O)Nc1ccc(F)cc1 | 1%
COc1ccc(C)cc1NC(=O)CN1C(=O)CSc2ccc(S(=O)(=O)N3CCCC3)cc21 | -3%&7%

In another format: results already given
> Cc1ccc(C(=O)NNC(=O)c2ccccc2-n2cccc2)cc1
  VDR inh: -1%
> CSc1ccc2c(c1)[C@H](N1CCN(C)CC1)Cc1ccccc1S2
  VDR inh: ?
> O=C(c1ccccc1)c1ccc(COC(=O)c2cnccn2)cc1
  VDR inh: -11%
> Cc1ccc(NC(=O)c2cc(N3C(=O)C4CC=CCC4C3=O)ccc2N2CCOCC2)cc1Cl (configuration not stated)
  VDR inh: 12%

Fetched one by one from above, 4 records:
SMILES | VDR inh
CCOC(=O)C(=O)Nc1ccc(F)cc1 | 1%
Cc1ccc(NC(=O)c2cc(N3C(=O)C4CC=CCC4C3=O)ccc2N2CCOCC2)cc1Cl (configuration not stated) | 12%
CCOC(=O)c1sc(NC(=O)c2ccoc2C)c(C(N)=O)c1C | -23%
O=C(CCN1C(=O)c2ccccc2C1=O)NCc1ccco1 | -12%

Other entries
SMILES | VDR inh
CCOC(=O)c1c(-c2ccccc2)nnn1-c1nc(OCC)nc(N2CCCCC2)n1 | -4%
CCCNC(=O)CCn1nc(-c2ccc(C)cc2)c2ccccc2c1=O | -5%&8%
O=C(COc1ccc(F)cc1)NCC1CCCO1 (configuration not stated) | -5%
O=C(CSc1nnc2ccc(-c3ccc(F)cc3)nn12)N1CCOCC1 | 2%
Cc1ccccc1S(=O)(=O)Cc1ccc(C(=O)N2CCN(c3cccc(C)c3C)CC2)o1 | -5%
O=C(NCCCNC(=O)c1ccccc1)c1ccccc1 | 24%
COc1cccc2c1OCC(C(=O)Nc1nccs1)=C2 | -11%
CSc1ccc(CN2CCN(C(=O)CC(C)C)CC2)cc1 | -15%
CC(=O)Oc1ccc(OC(C)=O)c2c1CC(C)=C(C)C2 | -13%
CCCCCOC(=O)CCN1C(=O)/C(=C2\SC(=S)N(CCC(=O)OCCCCC)C2=O)SC1=S | -4%
COc1ccc(-c2nc(NCCCN(C)C)c3ccccc3n2)cc1 | -3%
C/C=C\C(=O)Nc1cccc(C2=NOC3(C2)C[C@@H](C(N)=O)N(C(=O)COc2ccc(Cl)cc2)C3)c1 (some centres not stated) | -1%
O=C(c1cc2ccccc2oc1=O)N1CCCC1 | -7%
CCCCn1c(=O)c2oc3ccccc3c2n(CC(=O)Nc2ccc(CC)cc2)c1=O | 3%
COc1ccc([C@@H]2CC(=O)c3c(O)cc(O[C@@H]4O[C@H](CO)[C@@H](O)[C@H](O)[C@H]4O[C@@H]4O[C@@H](C)[C@H](O)[C@@H](O)[C@H]4O)cc3O2)cc1 | -13%

Arranged by SMILES length (smallest number first): part of the list above
SMILES | VDR inh
Cc1ccccc1S(=O)(=O)Cc1ccc(C(=O)N2CCN(c3cccc(C)c3C)CC2)o1 | -5%
CCCCCOC(=O)CCN1C(=O)/C(=C2\SC(=S)N(CCC(=O)OCCCCC)C2=O)SC1=S | -4%
C/C=C\C(=O)Nc1cccc(C2=NOC3(C2)C[C@@H](C(N)=O)N(C(=O)COc2ccc(Cl)cc2)C3)c1 (some centres not stated) | -1%

Returning to the listing, repeating the 2 entries before the break.
SMILES | VDR inh
CCCCn1c(=O)c2oc3ccccc3c2n(CC(=O)Nc2ccc(CC)cc2)c1=O | 3%
COc1ccc([C@@H]2CC(=O)c3c(O)cc(O[C@@H]4O[C@H](CO)[C@@H](O)[C@H](O)[C@H]4O[C@@H]4O[C@@H](C)[C@H](O)[C@@H](O)[C@H]4O)cc3O2)cc1 | -13%
CC(=O)N1CCCc2cc(S(=O)(=O)N3CCC(C(=O)NCc4ccccc4Cl)CC3)ccc21 | 10%
CCOCCCNC(=O)CN1C(=O)c2ccccc2Sc2ncccc21 | 9%
CCOC(=O)c1sc2ncc([N+](=O)[O-])cc2c1N | -4%
CC1(C)[C@H]2CC=C(CN3CCC(N4CCC(C(=O)N5CCCC5)CC4)CC3)[C@@H]1C2 | -7%
CC(OC(=O)c1cc2sccc2n1C)C(=O)NCCc1ccccc1 (configuration not stated) | -2%
O=C(O)c1ccc(S(=O)(=O)Nc2ccc(F)c(Cl)c2)cc1 | 4%
Cc1ccc(C)c(NC(=O)c2cc([N+](=O)[O-])cc([N+](=O)[O-])c2)c1 | -5%
CN(C)CCCN(C(=O)c1ccc(S(=O)(=O)N2CCOCC2)cc1)c1nc2cc3c(cc2s1)OCO3 | -15%
CCN(CCO)CCCC(C)Nc1ccnc2cc(Cl)ccc12 (configuration not stated) | -2%&3%
CCN(CC)S(=O)(=O)c1ccc(NC(=O)c2c(C)oc3ncnc(N4CCOCC4)c23)cc1 | -6%
COc1ccccc1N1CCN(C(=O)c2ccc3c(=O)n(Cc4ccc5c(c4)OCO5)c(=O)[nH]c3c2)CC1 | 13%
COc1ccc(NC(=O)N2CCN(S(=O)(=O)c3ccc(F)cc3)CC2)c(OC)c1 | -21%
COc1ccc(OC)c(S(=O)(=O)N2CCc3ccccc3C2)c1 | -1%
C/C(=N/OC(=O)c1ccc(Cl)cc1Cl)c1oc(C)nc1C | 24%
O=C(CSc1ncn[nH]1)N(C1CCCCC1)C1CCCCC1 | 4%
CC(C)(C)NC(=O)CSc1nc2ccccc2c(=O)[nH]1 | 20%
COc1ccc(CCNC2=NCCS2)cc1 | -19%
COc1ccccc1-c1sc2cc3c(cc2c1-c1ccc(OCCN2CCCCC2)cc1)OCO3 | 18%
CC(C)c1ccc(S(=O)(=O)N2CCN(C(=O)c3ccco3)CC2)cc1 | -17%
O=C(CSc1nncc2ccccc12)Nc1ccc(F)cc1 | 5%
CCOC(=O)c1oc2ccccc2c1NC(=O)CN1CCOCC1 | -10%
COC(=O)CCC(=O)OC1(C)C(=O)C=C2C=C(C3CC3)N(C(CO)CO)C=C2C1=O (configuration not stated) | -1%
Cc1cccc(NC(=O)Cn2nnc(C(=O)Nc3ccccc3Br)c2N)c1C | 1%
CCCCn1c(NCc2ccccc2O)nc2ccccc21 | -20%
CCOc1ccc(C(=O)CN2CCN(S(=O)(=O)c3ccc(F)cc3)CC2)cc1 | -11%
CCN(CC)c1ccc(C(=O)OCC(=O)Nc2ccc3[nH]c(=O)[nH]c3c2)cc1 | 18%
COc1cccc(C(=O)CC(=O)C(=O)Nc2cc(OC)ccc2OC)c1 | 20%
Cc1ccc(SCC(=O)Nc2ccc3oc(-c4cccc(C)c4)nc3c2)cc1 | -5%
CN(c1ccc(C(=O)Nc2ccccc2C(=O)N2CCCC2)cc1)S(C)(=O)=O | -14%
CCOc1ccccc1CNC(=O)CCCC(=O)n1nc(C)c2ccccc21 | 10%
Cc1cc(C)c(NC(=O)Cn2c(=O)nc(-c3ccccc3)c3cc(Cl)ccc32)c(C)c1 | 0%
COc1ccccc1C(=O)NCC(=O)Nc1ccccc1 | 9%
O=[N+]([O-])c1cc(S(=O)(=O)N2CCCC2)ccc1N/N=C/c1ccccn1 | 1%
CCCC12CN3CC(C)(CN(C1)C31C(=O)Nc3ccc(C)cc31)C2=O (configuration not stated) | 6%
CCOC(=O)N1CCN(CC(O)COc2ccccc2C(C)C)CC1 (configuration not stated) | 8%
Cc1nn(Cc2c(F)c(F)c(F)c(F)c2F)c(C)c1NC(=O)c1c(-c2ccccc2)nn(-c2ccccc2)c1C | 11%
CCOC(=O)C(CC)Sc1ccc2nnc(CCNS(=O)(=O)c3ccc(C)cc3)n2n1 (configuration not stated) | 1%
Cc1ccc(O)c(NC(=O)c2ccc3c(c2)C(=O)N(Cc2ccco2)C3=O)c1 | -12%
CC1(C)Cc2c(C#N)c(SCCOc3ccccc3)nc(N3CCOCC3)c2CO1 | -5%
CC(=O)c1cnc2nc(SCc3cccc(C)c3)nn2c1C | -9%
CCOC(=S)SCC(=O)Nc1nc(C)c(C)s1 | ?
COc1cc(CC(NC(C)=O)C(=O)NC2CCN(C(=O)Nc3ccccc3C)CC2)cc(OC)c1 (configuration not stated) | 3%
COc1ccc(OC)c(NC(=O)CCCC(=O)NC2CCCCC2)c1 | 3%
O=C(NCc1ccccc1)C1CCC(=O)N(CC2CCCCC2)C1 (configuration not stated) | 0%
CCN(CC)c1ccc(N=Cc2c(C)[nH]c3ccccc23)cc1 | ?
c1ccc(-n2nnnc2SCCCSc2nc3ccccc3s2)cc1 | -19%
Cc1cccc(OC(C)C(=O)Nc2nc(-c3ccncc3)cs2)c1 (configuration not stated) | 11%
O=C(NC(=O)c1ccccc1)Nc1cccc(S(=O)(=O)N2CCCCC2)c1 | -12%
O=C1C(=O)N(Cc2ccccc2)C(=O)N1CCN1C(=O)c2ccccc2C1=O | -14%
COc1ccc(/C=N/NC(=S)Nc2ccccc2)cc1 | -4%
COc1cccc(C2=NOC(C(=O)NCc3ccco3)C2)c1 (configuration not stated) | -5%
O=C(c1ccccc1)c1cc([N+](=O)[O-])ccc1N1CCCC1 | -5%
CCOC(=O)c1[nH]c2ccc(OC)cc2c1NC(=O)N1CCOCC1 | -13%
COc1ccccc1Nc1nc(NCC(C)C)nc(N)c1[N+](=O)[O-] | 9%
CCN(CC)S(=O)(=O)c1ccc(C)c(C)c1 | 6%
Cc1cc2ncn(-c3ncccc3[N+](=O)[O-])c2cc1C | -6%
COc1ccc(C(C(=O)NCc2ccccc2)N(C(=O)Cn2nnc3ccccc32)c2ccc(OC)cc2)cc1 (configuration not stated) | 1%
COCCn1c(=O)c(-c2ccc(F)cc2)nc2cnc(OCc3ccccc3)nc21 | -2%
O=C(c1cc(-c2ccc(Br)cc2)n[nH]1)N1CCN(S(=O)(=O)c2ccc(Cl)s2)CC1 | 4%
CC(C)N(Cc1ccccc1)C(C)C (tested in a mixture with another compound) | -4%

New compounds follow
SMILES | VDR inh
Cc1cccc(C)c1NC(=S)N(Cc1ccccc1)Cc1cccnc1 | -18%
COC(=O)c1cc(=O)nc2sccn12 | 1%
COc1ccc([N+](=O)[O-])cc1N(CC(=O)Nc1ccccc1C(=O)N1CCCC1)S(C)(=O)=O | 20%
O=C(C1CCN(S(=O)(=O)N2CCC3(CC2)OCCO3)CC1)N1CCc2ccccc2C1 | 4%
CCCS(=O)(=O)Nc1cccc(-c2cn3c(n2)SCC3)c1 | -26%
Cc1cc(C)n(Cc2n[nH]c(=S)n2Cc2ccccc2)n1 | -10%
Cc1ccc(S(=O)(=O)N2CCN(C(=O)CCC(=O)NCc3ccc(F)cc3)CC2)cc1 | -5%
Cc1nnc(SCCN2C(=O)c3ccccc3C2=O)nc1C | 1%
CCCCCC(/C=N/Nc1ccc(S(=O)(=O)N2CCOCC2)cc1[N+](=O)[O-])=C\c1ccccc1 | -4%
COc1cccc(C(=O)NC2CCCN(C3Cc4ccccc4C3)C2)c1OC (configuration not stated) | -3%
CCc1cccc(CC)c1NC(=S)Nc1ccccc1 | 1%
COc1ccc(NC(=O)CN(c2ccc(C)cc2)S(=O)(=O)c2cccs2)cc1OC | -14%
O=C(Nc1ccc2c(c1)OCCO2)c1cncc(Br)c1 | -12%
CCOc1ccc(NC(=O)CN2C(=O)C(c3ccc(Cl)cc3)=NC2(C)C)cc1 | -6%
Cc1nn(C)c(C)c1NC(=O)c1ccc(Br)o1 | -8%
COc1ccccc1N1CCN(C(=O)c2ccncc2)CC1 | 4%
Cc1c(Cl)cccc1NC(=S)N1CCOCC1 | 25%
